Screens as filed in PubChem BioAssay.
A340 absorber: compounds absorbing at 340 nm. fold change at 10 µM. AID 708. 65,000 tested, under 10 active. compound absorbance at 340 nm, fold over control;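 active = at 10 µM dose, initial 340 nm absorbance at least 2 fold that of control wells; inactive = change under 2 fold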;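 also: initial absorbance extrapolated from kinetic A340 decline of NADH oxidation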
Her2 expr inh: Her2 kinase expression inhibition | P04626 | SKBR-3 HER2 protein level, AlphaScreen, 18-24 h; stronger effect = lower value | HER2 level % of control, % at 10 µM | hit rate 0.69% among 65,000;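 active = HER2 level under 5% of the carrier-only control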;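 also: 100% = DMSO carrier and 0% = 500 nM PU-H71 HSP90 inhibitor; lower value means stronger loss of Her2 protein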
Autofluor 339: intrinsic fluorescence of library compounds, ex339/em460 – biochemical, MLSMR library, data from DPM-DC assay, artefact control, profiling panel; fluorescence fold increase at 10 µM; compound autofluorescence, ex339/em460 nm, NADH buffer; stronger effect = higher value; 1 = no-compound wells, NADH background; hit rate 5.5% among 65,000;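 active = at 10 µM, mean starting fluorescence two-fold or more over control wells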;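 also: signal is the first read of a kinetic run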
MKP-1 inh: inhibitors of human MKP-1 phosphatase | recombinant MKP-1, OMFP hydrolysis fluorescence | inhibition, %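 (compounds tested at a single concentration somewhere between 10 and 100 µM)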 | hit rate 0.15% among 65,000;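 active = inhibition above about 50%, limit read from the data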;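 also: 0% = DMSO max control wells and 100% = wells with enzyme stopped by NaOH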
JNK3 inh: inhibitors of human JNK3 kinase; P53779; hit rate 0.61% among 60,000; purified JNK3 kinase activity, HTS; AID 746; inhibition, % at 8 µM; in the data active = inhibition above about 17%;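 also: 0% = DMSO and 100% = reference inhibitor; many of its hits are not listed in these tables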
Hsp90 block: displaces geldanamycin probe from tumor Hsp90. P07900. NCI-N417 lysate Hsp90, Cy3B-geldanamycin FP displacement. inhibition, % at 30 µM. hit rate 0.35% among 64,000;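 active = inhibition above 50%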;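 also: 0% = tracer plus lysate wells and 100% = tracer alone without lysate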
Cdc25B inh: inhibitors of human Cdc25B phosphatase; recombinant Cdc25B, OMFP fluorescence Ex485/Em525; inhibition, %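 (compounds tested at 10 µM final in the well)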; hit rate 0.1% among 65,000; in the data active = inhibition above about 50%
Starred values were filed as active, the others as inactive.

Labels used below: A = A340 absorber; B = Her2 expr inh; C = Autofluor 339; D = MKP-1 inh; E = JNK3 inh; F = Hsp90 block; G = Cdc25B inh
> Cc1c(NC(=O)C2CCCN2S(=O)(=O)c2ccccc2)c(=O)n(-c2ccccc2)n1C (stereo not given)
  A: 1 | B: 94 | C: 1.1 | D: 11 | E: 4 | F: -6 | G: -13

> Clc1ccc(-c2nn3c(Cn4cnc5ccccc54)nnc3s2)c(Cl)c1
  A: 1 | B: 89 | C: 1.1 | D: -6 | E: 2 | F: -2 | G: 6

> Cc1cc(C)nc(N2CCC(C(=O)NC3CCCCCC3)CC2)n1
  A: 0.99 | B: 148 | C: 1.3 | D: -3 | E: 7 | F: 0 | G: -2

> CCn1c(SCC(=O)c2[nH]c(C)c(C(C)=O)c2C)nnc1-c1ccncc1
  A: 1.1 | B: 116 | C: 1 | D: 11 | E: -5 | F: -7 | G: -9

> O=C(CSc1nnnn1-c1ccccc1)N1CCN(C(=O)c2ccco2)CC1
  A: 0.98 | B: 101 | C: 1 | D: 9 | E: -8 | F: -2 | G: 0

> COc1cccc(NC(=O)NCCCN2CCN(c3ccc(F)cc3)CC2)c1
  A: 1 | B: 109 | C: 1.1 | D: -3 | E: -4 | F: 0 | G: -2

> O=C(Nc1ccncc1)c1cc2ccccc2o1
  A: 1 | B: 68 | C: 1 | D: 3 | E: 3 | F: -6 | G: -10

An excerpt from above in order of their number in JNK3 inh, ascending.
SMILES,A340 absorber,Her2 expr inh,Autofluor 339,MKP-1 inh,JNK3 inh,Cdc25B inh
O=C(CSc1nnnn1-c1ccccc1)N1CCN(C(=O)c2ccco2)CC1,0.98,101,1,9,-8,0
Clc1ccc(-c2nn3c(Cn4cnc5ccccc54)nnc3s2)c(Cl)c1,1,89,1.1,-6,2,6
Cc1c(NC(=O)C2CCCN2S(=O)(=O)c2ccccc2)c(=O)n(-c2ccccc2)n1C (stereo not given),1,94,1.1,11,4,-13

2 compounds from above, reduced to Autofluor 339 and JNK3 inh:
SMILES	Autofluor 339	JNK3 inh
Clc1ccc(-c2nn3c(Cn4cnc5ccccc54)nnc3s2)c(Cl)c1	1.1	2
Cc1cc(C)nc(N2CCC(C(=O)NC3CCCCCC3)CC2)n1	1.3	7

The list is partial; count on the stated rates, not on these rows.
